2A firefly: Primary qHTS Assay for Foot and Mouth Disease Virus Antivirals against NCGC Sytravon and CBC Compound Libraries: Firefly Luciferase Signal. Potency, µM (series often up to 57.5 µM), inactives show at the highest dose signal change, negative = less light. 120,000 tested, 0.23% active. HEK cells with a luciferase reporter of 2A StopGo recoding; active = well fitted falling curve with a large enough effect; inconclusive = small, poorly fitted or top-dose-only effect; inactive = no such curve, though single readings can be large or run the other way; note: nearly all actives have a fitted effect of over 60% in size; overnight with compound
StopGo RLuc: Primary qHTS Assay for Foot and Mouth Disease Virus Antivirals against NCGC Sytravon and CBC Compound Libraries: Renilla Luciferase Signal | HEK cells with a luciferase reporter of 2A StopGo recoding | Potency, µM (highest dose often 57.5 µM), inactives show top-dose signal change, negative = less light | 120,000 tested, 0.32% active | AID 1745857, 2022; active means well fitted falling curve with a large enough effect; inconclusive means small, poorly fitted or top-dose-only effect; inactive means no such curve, though single readings can be large or run the other way; note: nearly all actives have a fitted effect of over 55% in size; overnight with compound
Active calls of the source: *; ? = inconclusive; & = joins results of further samples; [ ] = dose if it differs, or a comment. % is set by controls: 0 for no effect and ±100 for the full control effect; potency is the fitted concentration of half-maximal effect.

SMILES	2A firefly	StopGo RLuc
COCCOc1ccc(C(=O)/C=C/c2ccc(C(=O)OC)o2)cc1	4%	-2%
Cc1nc(CN2CCN(C(=O)NCCc3ccccn3)CC2)cs1	4%	-13%
Cc1ccc(NC(=O)Cn2c(=O)n(CCCCCC(=O)NCc3ccc(F)cc3)c(=O)c3sccc32)cc1C	-19%	-18%
CC(=O)c1ccc(N2CCN(C(=O)c3ccc(Cl)c(Cl)c3)CC2)c(F)c1	7%	5%
CCS(=O)(=O)N(C)c1ccc2sc(C(=O)NC)cc2c1	0%	5%
NC(=O)c1ccc(COC(=O)c2cc(Br)ccc2F)cc1	4%	-1%
COc1ccc(C)cc1NC(=O)CSc1nnc(CN2CCCCC2)n1-c1ccc(F)cc1	11%	12%
COc1ccc2c(c1)c(C(C(=O)O)N1CCN(Cc3ccccc3)CC1)cn2CC(=O)O (stereo not given)	-2%	-10%
CN1CCN(c2nc3ccccc3nc2NS(=O)(=O)c2ccc(Cl)cc2)CC1	2%	23%
O=C(NCCO)C(=O)NCC(c1ccc2c(c1)OCO2)N1CCOCC1 (stereo not given)	-13%	-11%
C/C(=C\c1ccccc1)C(=O)NC1CCCC1	0%	0%[1.06 µM]
OCCNc1nc(-c2ccccc2)c2cc(Br)ccc2n1	1%	4%
Cc1cccc(CN2C(=O)c3ccccc3Sc3ccc(C(=O)NCc4ccco4)cc32)c1	-20%	14%
CCOC(=O)c1cc2c(=O)n3ccccc3nc2n(CC(C)C)c1=NC(=O)COc1ccc(Cl)cc1	-5%	15%
CC1CCN(S(=O)(=O)c2ccc3c(c2)oc(=O)n3CC(=O)O)CC1	?	-13%
CC(=O)c1ccc(NC(=O)CN2C(=O)c3cccnc3Sc3ccccc32)cc1	171%[activator]	33%[activator]
CCc1ccc(C2CC(=O)N3CN(Cc4ccccc4)CSC3=C2C#N)cc1 (stereo not given)	6%	17%
CCc1ccc(CNC(=O)c2cccn3c(=O)c4ccccc4nc23)cc1	0%	87%[activator]
Cc1ccsc1C(=O)/C(C#N)=C\c1ccc(OC(F)F)cc1	8%	25%
CCc1nnsc1C(=O)N(C)Cc1ccccc1Cl	-10%	-1%
Cc1ccc(-c2cc(C(=O)NCCCN(C)C)c3ccccc3n2)cc1	13%	-3%
COc1ccc(NC(=O)Cn2c(=O)n(-c3ccc(OC)cc3)c(=O)c3sc4ccccc4c32)cc1	4%	1%
CCCCCCCCCCCCCCCCCCO	-21%	-12%
O=C(Cn1cnc2ccc(Cl)cc2c1=O)N(Cc1cccs1)c1ccc2c(c1)OCCO2	-16%	9%
Cc1ccc(-c2cnc(CCC(=O)NCc3ccco3)o2)cc1C	27%	55%[activator]
COc1cc(NC(=O)CSc2nnc(-c3ccccc3OC)n2-c2ccccc2)cc(OC)c1	-26%	-12%
COc1ccc(CCNCc2ccccc2F)cc1OC	8%	-4%
COc1ccc(C(=O)NCC(c2cccs2)S(=O)(=O)c2cccs2)cc1 (stereo not given)	4%	32%[activator]
CN(Cc1ccccc1)S(=O)(=O)c1nnc(NC(=O)c2cccc(Cl)c2)s1	-26%	74%[activator]
Cc1ccc(-n2[nH]c(C)c(N=Nc3cccc(-c4cccc(C(=O)O)c4)c3O)c2=O)cc1C	-6%	?
CCn1c(SCc2nc(-c3ccccc3Cl)oc2C)nc2c(=O)[nH]cnc21	41%[activator]	24%
CCCNc1nc(-c2ccc([N+](=O)[O-])cc2)c(C(=O)Nc2ccccc2)s1	53%	1%
O=C(Nc1ccc(Cl)cc1)c1ccc2c(c1)N(Cc1ccccc1)C(=O)c1ccccc1S2(=O)=O	-15%	15%
O=C(CN=C1NS(=O)(=O)c2ccccc21)NCCc1ccccn1	5%	51%[activator]
O=S(=O)(Cc1ccc(Cl)cc1)Cc1ccnc(Cl)c1	-11%	-19%
COc1ccc(CNC(=O)c2ccc(OC(C)=O)cc2)cc1	0%	5%
CC(C)CNC(=O)NC(=O)CN(C(C)C)C1CC1	12%	-1%[1.06 µM]
Cc1cc(C)c(NC(=O)Cn2c(=O)n(CCC(=O)N3CCc4ccccc4C3)c(=O)c3ccccc32)c(C)c1	-26%	-16%
O=C(Nc1c(Cl)cc(Cl)cc1Cl)C12CC3CC(CC(C3)C1)C2	12%	9%
CC(Oc1ccccc1F)C(=O)NCC1(N2CCOCC2)CCCCC1 (stereo not given)	0%	0%
Cn1c(=O)c2c(nc(N3CCOCC3)n2CCCN)n(C)c1=O	-2%	-4%
COc1cc(-c2ccno2)ccc1S(=O)(=O)N1CCN(c2ccc(C(C)=O)cc2)CC1	16%&17%	210%[activator]
COC(=O)c1nnn(CC(=O)Nc2ccccc2Cl)c1C(=O)OC	-5%	3%
CC(C)c1ccc(CNC(=O)c2cc3c(s2)CCCC3)cc1	47%[activator]	8%
CCOC(=O)c1cc(S(=O)(=O)Nc2ccc(OCc3ccccc3)cc2)[nH]n1	80%[activator]	174%[activator]

17 entries from above in a different format.
| SMILES | 2A firefly | StopGo RLuc |
| --- | --- | --- |
| COc1cc(NC(=O)CSc2nnc(-c3ccccc3OC)n2-c2ccccc2)cc(OC)c1 | -26% | -12% |
| COc1ccc(CCNCc2ccccc2F)cc1OC | 8% | -4% |
| COc1ccc(C(=O)NCC(c2cccs2)S(=O)(=O)c2cccs2)cc1 (stereo not given) | 4% | 32%[activator] |
| CN(Cc1ccccc1)S(=O)(=O)c1nnc(NC(=O)c2cccc(Cl)c2)s1 | -26% | 74%[activator] |
| Cc1ccc(-n2[nH]c(C)c(N=Nc3cccc(-c4cccc(C(=O)O)c4)c3O)c2=O)cc1C | -6% | ? |
| CCn1c(SCc2nc(-c3ccccc3Cl)oc2C)nc2c(=O)[nH]cnc21 | 41%[activator] | 24% |
| CCCNc1nc(-c2ccc([N+](=O)[O-])cc2)c(C(=O)Nc2ccccc2)s1 | 53% | 1% |
| O=C(Nc1ccc(Cl)cc1)c1ccc2c(c1)N(Cc1ccccc1)C(=O)c1ccccc1S2(=O)=O | -15% | 15% |
| O=C(CN=C1NS(=O)(=O)c2ccccc21)NCCc1ccccn1 | 5% | 51%[activator] |
| O=S(=O)(Cc1ccc(Cl)cc1)Cc1ccnc(Cl)c1 | -11% | -19% |
| COc1ccc(CNC(=O)c2ccc(OC(C)=O)cc2)cc1 | 0% | 5% |
| CC(C)CNC(=O)NC(=O)CN(C(C)C)C1CC1 | 12% | -1%[1.06 µM] |
| Cc1cc(C)c(NC(=O)Cn2c(=O)n(CCC(=O)N3CCc4ccccc4C3)c(=O)c3ccccc32)c(C)c1 | -26% | -16% |
| O=C(Nc1c(Cl)cc(Cl)cc1Cl)C12CC3CC(CC(C3)C1)C2 | 12% | 9% |
| CC(Oc1ccccc1F)C(=O)NCC1(N2CCOCC2)CCCCC1 (stereo not given) | 0% | 0% |
| Cn1c(=O)c2c(nc(N3CCOCC3)n2CCCN)n(C)c1=O | -2% | -4% |
| COc1cc(-c2ccno2)ccc1S(=O)(=O)N1CCN(c2ccc(C(C)=O)cc2)CC1 | 16%&17% | 210%[activator] |

New compounds follow
SMILES	2A firefly	StopGo RLuc
CCn1cnc2c1c(=O)n(CC(=O)Nc1ccc(OC)c(OC)c1)c(=O)n2Cc1ccccc1	14%	3%
CCC1(c2ccc(NC(=O)c3cccc(OC)c3)cc2)CCC(=O)NC1=O (stereo not given)	0%	5%
COc1ccc(C)cc1Nc1nc(N)c(C(=O)c2ccc(C)cc2C)s1	35%[activator]	10%
CC(C)n1nc(C(=O)N2CCN(c3ncccn3)CC2)c2ccccc2c1=O	34%[activator]	0%
CCCCC(Sc1nc2cc3c(cc2c(=O)n1CCCC(=O)NCc1ccc(OC)cc1)OCO3)C(=O)OCC (stereo not given)	-12%	9%
CCCc1cc(=O)n2[nH]c(NC(=O)c3ccc(C(C)(C)C)cc3)nc2n1	-3%	-5%
Cc1nn(-c2nc(CC(=O)Nc3ccccc3F)cs2)c(C)c1Cc1ccccc1	19%	1%
Cc1nn(S(=O)(=O)c2ccc(C(C)(C)C)cc2)c(C)c1S(=O)(=O)N1CCCCCC1	-13%	-9%
O=C(NCc1ccccc1Cl)C1CCN(C(=O)N2CCOc3ccccc32)CC1	6%	-4%
Cc1cccc(N2CCN(C(=O)c3ccc4c(c3)N(Cc3ccccc3)C(=O)c3ccccc3S4(=O)=O)CC2C)c1 (stereo not given)	12%	-3%
CCCn1c2ccccc2c2cnn(CC(=O)N3CCN(c4ccccc4F)CC3)c(=O)c21	-14%	-6%
O=C(O)CS(=O)(=O)Cc1ccc(Cl)cc1	6%	7%
Cc1oc2ncn(CC(C)C)c(=O)c2c1C(=O)NCCc1ccccc1	39%[activator]	40%[activator]
CC(=O)NNC(=S)NCc1ccc(C)cc1	17%	12%
Brc1ccccc1/C=N/Nc1ccc2ccccc2c1	0%	9%
COCCNC(=O)CSc1nc2cc3c(cc2c(=O)n1CCCC(=O)NCCc1ccc(OC)c(OC)c1)OCO3	-13%	0%
O=C(Nc1ccc2oc(-c3ccc4ccccc4c3)nc2c1)c1cc(Br)ccc1Cl	93%[activator]	-8%
COc1ccc(Cc2nc3ccccc3n2Cc2ccccc2C)cc1	-15%	-16%
O=C(CCNC(=O)NCc1nc2c(cnn2-c2ccccc2)c(=O)[nH]1)NCc1ccccc1	-4%	-3%
CCCn1cc(S(=O)(=O)c2cccc(Cl)c2)c(=O)c2cc(F)c(N3CCCC3)cc21	8%	62%[activator]
CC1(C)CC(NC(=O)c2nc(-c3ccc4[nH]ccc4c3)no2)CC(C)(C)N1	-16%	-12%
Cc1c(C(=O)c2ccc[nH]2)oc2ccc(F)cc12	116%[activator]	-2%
CC(C)Oc1ccc(CNC(=O)c2cnc3sc(N4CCCCCC4)nn3c2=O)cc1	-2%	-5%
CCn1nc(C(=O)Nc2cc(S(=O)(=O)N(C)C)ccc2OC)c2ccccc2c1=O	7%	17%
O=C1CC(c2cccc(Cl)c2)CC2=C1C=Nc1ccccc1N2 (stereo not given)	?	?
O=C(CCc1ncc(-c2ccccc2F)o1)Nc1ccc(F)cc1	-5%	-16%
O=[N+]([O-])c1ccccc1-c1ccc(/C=N/O)o1	0%	21%
CCCCC(=O)Oc1ccc2c(C)cc(=O)oc2c1	14%	-3%
O=C(Nc1ccc(Cl)cc1)c1ccc(-n2cnc3ccccc3c2=O)cc1	13%	-22%
CC1CCN(S(=O)(=O)c2ccc3c(c2)c(=O)c(C(=O)NCc2ccc(Cl)cc2)cn3C)CC1	-1%	-15%
CCn1cc(CNC(=O)c2cc(-c3ccc(C)c(C)c3)nc3ccccc23)cn1	165%[activator]	20%
O=C(CN1C(=O)C(c2ccc(F)cc2)=NC12CCCCCC2)Nc1ccccc1Cl	-9%	-1%
S=C(NCc1ccccc1)Nc1ccc(NC(=S)NCc2ccccc2)c(Cl)c1	15%	75%[activator]
Cc1nc2ccc(C(=O)NCCCN(C)C)cc2nc1C	7%	-2%
Cc1cccc(Cn2c(SCc3ccc(C(=O)NC4CCCC4)cc3)nc3ccncc32)c1	-17%	3%
O=C(/C=C/c1ccc(-c2c(Cl)cccc2Cl)o1)c1ccc(Cl)cc1	141%[activator]	-10%
CC(=O)Nc1cc(F)ccc1-c1csc(NC(=O)C2CCCC2)n1	-7%	1%
CCOc1ccc(CNC(=O)c2ccc3nc(Cc4ccc(OC)cc4)oc3c2)cc1OC	?	?
CC(C)=CC1C(C(=O)NCC2CN(CC(C)C)CCO2)C1(C)C (stereo not given)	-10%	0%
N#Cc1ccccc1CSc1ncc(C(F)(F)F)cc1Cl	-8%	-7%
COc1ccc(OC)c(NC(=O)N2CC3CCCN3c3ccccc32)c1 (stereo not given)	-7%	-8%
CC(=O)Oc1cccc2cc(-c3nc(-c4ccccc4)no3)c(=O)oc12	0%	-7%
CC(C)c1nc2ccc(C(=O)Nc3ccccc3F)cc2o1	27%	-10%
O=C(Cn1cnc2onc(-c3ccc(F)cc3)c2c1=O)N1CCN(c2ccc(F)cc2)CC1	-10%	-8%
Cc1cc(C)c(C(=O)Cn2cnc3c2c(=O)n(C)c(=O)n3C)cc1C	7%	-4%
CC1CCC(C(C)C)C(OCCC[N+](C)(C)C)C1 (stereo not given)	-6%	0%
Cc1c(Cl)cccc1NC(=O)C(C)NS(=O)(=O)c1ccc2c(c1)CCN2C(=O)N1CCCC1 (stereo not given)	-3%	4%
COc1ccc(S(=O)(=O)N2CCC(Oc3ccc(-n4cnnn4)cc3)CC2)cc1	-6%	3%
CCOC(=O)COc1ccc2c(=O)c(-c3ccc(OC)c(OC)c3)coc2c1	-7%	-6%
CC(C)OC(=O)C1=C(N)Oc2c(oc(CO)cc2=O)C1c1ccc(F)c(F)c1 (stereo not given)	-9%	-2%
Cc1nc2sc(C)c(C)n2c(=O)c1S(=O)(=O)N1CCN(c2ccccc2F)CC1	0%	-9%
CCN(Cc1ccc(Cl)s1)C(=O)CCc1cccs1	0%	105%[activator]
Cc1ccc2occ(CC(=O)Nc3ccc(S(=O)(=O)N4CCC(C)CC4)cc3)c2c1	-25%	168%[activator]
CCc1cccc(NC(=O)c2nccnc2N)c1	0%	-12%
CC(CC(=O)NCC1(N(C)C)CCCCCC1)NC(=O)c1ccccc1 (stereo not given)	23%	-6%
O=C(Nc1ccc(F)cc1F)C12CC3CC(CC(Br)(C3)C1)C2	11%	7%
Cc1ccc(-n2nnc(C(=O)Nc3cc(F)ccc3F)c2C)cc1F	60%[activator]	5%
CCn1cc(C(=O)N(Cc2ccc(F)cc2)C2CC2)c2ccccc21	-15%	25%
COc1ccc(C)cc1NC(=O)CNC(=O)CNc1cccc(Cl)c1F	2%	13%
CN(C)CCN(Cc1ccc(F)cc1)C(=O)c1cccc(S(C)(=O)=O)c1	183%[activator]	-6%
COc1cc(OC)c2cc(C(=O)NCC(=O)Nc3ccc4c(c3)OCCO4)n(C)c2c1	-11%	-10%

High-throughput results (PubChem)

These rows are one share of the data; count on the stated rates, not on these rows.
